PINK1 modulator – A Quantitative High throughput Screen to Identify Chemical Modulators of PINK1 Expression; PINK1 immunofluorescence, high-content cytometry, 24 h; Potency, µM (highest dose often 76.6 µM), for the others: at the highest dose activation (PINK1 increase), hits mostly activators; actives 0.2% (n = 410,000); active = well fitted activation curve with a large enough effect; inconclusive = small, poorly fitted or top-dose-only effect; inactive = flat fitted curve, though single readings scatter; cell line not stated here;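 also: potency is read from the fitted curve at half-maximal effect; % of control where 0% means no effect; nearly all actives have a fitted effect of over 65% in size; a mitochondrial uncoupler was the plate control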
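Readout is PINK1 immunofluorescence, quantified alongside mitochondrial, cell and nuclear markers by laser-scanning microplate cytometry. Cells from a stable line were exposed to compound titrations (5 concentrations) for 24 hours, with CCCP controls.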
D2 agonist – Beta-Arrestin HTS for Positive Allosteric Modulators of the Human D2 Dopamine Receptor: Agonists; actives 0.084% (n = 360,000); activation, % (concentration not given with the values); AID 624465, 2012; DiscoveRx PathHunter D2 beta-arrestin, luminescence, 90 min; 100% = 57 uM dopamine signal; in the data active = activation above about 40%; inconclusive = about 15% to 40%; inactive = below about 15%; also: compound concentration not given in the record; the text of the record calls up to 30% inactive
Target sequence (P14416 whole entry, looked up): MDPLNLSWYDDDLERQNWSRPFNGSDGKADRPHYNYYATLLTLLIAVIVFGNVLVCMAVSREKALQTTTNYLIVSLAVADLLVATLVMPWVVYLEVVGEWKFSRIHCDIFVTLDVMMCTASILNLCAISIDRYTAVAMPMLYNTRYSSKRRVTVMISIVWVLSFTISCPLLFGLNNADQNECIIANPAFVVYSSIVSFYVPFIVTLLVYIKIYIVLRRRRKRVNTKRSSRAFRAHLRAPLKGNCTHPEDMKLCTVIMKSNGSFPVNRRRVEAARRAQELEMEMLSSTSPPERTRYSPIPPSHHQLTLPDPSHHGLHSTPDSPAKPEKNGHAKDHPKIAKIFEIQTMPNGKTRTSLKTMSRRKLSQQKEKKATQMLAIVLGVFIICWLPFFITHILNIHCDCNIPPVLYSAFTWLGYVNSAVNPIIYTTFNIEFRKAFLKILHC
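DiscoveRx PathHunter D2 beta-arrestin cells (2,100/well) attached overnight, then compound-stimulated 90 min at 37 C in HBSS/10 mM HEPES/0.1% Tween-20 buffer; beta-galactosidase complementation read by luminescence after 1 h at ambient temperature. Dopamine 57 uM final (EC100) as control.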
D2 potentiator – Beta-Arrestin HTS for Positive Allosteric Modulators of the Human D2 Dopamine Receptor: Potentiators. potentiation, % (no concentration beside the values). actives 0.23% (n = 360,000). AID 624464, 2012. DiscoveRx D2 beta-arrestin cells, luminescence, 90 min; 100% = 57 uM dopamine signal. D(2) dopamine receptor (Homo sapiens), P14416; active = potentiation of 50% or more; inconclusive = 30% to 50%; inactive = 30% or less;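 also: compound concentration not given in the record; tested on top of an EC20 dose of dopamine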
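PathHunter beta-arrestin assay in DiscoveRx D2 cells. Compounds were added with an EC20 of dopamine (50 nM final) for 90 min at 37 deg C. Luminescence was read 1 h after detection reagent, with 57 uM dopamine as the EC100 control.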
TRPML1 ag – qHTS for Agonists of the Human Mucolipin Transient Receptor Potential 1 (TRPML1); Mucolipin-1 (Homo sapiens), Q9GZU1; activation, % (test concentration not listed); TRPML1-expressing cells, Ca2+ dye fluorescence, FDSS; host cell line not named in the record; reference of the full effect not given here; AID 624414, 2012; actives 0.12% (n = 410,000); in the data active = activation above about 50%; inconclusive = about 30% to 50%; inactive = below about 30%; also: 0% is about no effect; the text of the record puts the active cut at 80%
Target sequence (Q9GZU1 whole entry, looked up): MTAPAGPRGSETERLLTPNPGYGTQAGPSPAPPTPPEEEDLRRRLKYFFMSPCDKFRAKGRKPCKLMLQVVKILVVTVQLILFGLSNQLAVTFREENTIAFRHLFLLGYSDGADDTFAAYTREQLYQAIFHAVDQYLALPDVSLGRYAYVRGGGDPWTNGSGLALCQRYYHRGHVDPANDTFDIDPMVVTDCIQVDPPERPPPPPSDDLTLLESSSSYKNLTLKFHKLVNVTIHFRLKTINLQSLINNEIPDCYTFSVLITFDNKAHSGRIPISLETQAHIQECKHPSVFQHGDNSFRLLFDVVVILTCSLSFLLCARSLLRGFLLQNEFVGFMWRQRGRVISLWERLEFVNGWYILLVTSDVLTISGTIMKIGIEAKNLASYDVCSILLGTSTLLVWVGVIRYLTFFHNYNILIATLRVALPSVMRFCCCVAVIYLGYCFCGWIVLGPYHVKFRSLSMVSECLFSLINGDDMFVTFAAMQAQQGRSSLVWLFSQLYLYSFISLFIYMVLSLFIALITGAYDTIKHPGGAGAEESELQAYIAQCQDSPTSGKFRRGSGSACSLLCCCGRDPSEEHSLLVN
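Calcium fluorescence on an FDSS kinetic reader gave the read-out. Tet-induced TRPML1-DL cells were plated overnight, dye-loaded (Ca8 with quencher, 45-90 min, room temperature, dark), then read 110 s after compound addition, and again 110 s after 4uM final 54-4 (EC80).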
CtBP-E1A inh – qHTS Assay for Inhibitors of the CtBP/E1A Interaction | CtBP / adenovirus E1A interaction (AlphaScreen) | AlphaScreen GST-E1A/His-CtBP binding, 1536-well; stronger effect = lower value; control for the full effect not named in the record | activity change, % (concentration not given with the values) | actives 0.49% (n = 340,000) | AID 651724, 2012; in the data active means activity change below about -65%; inconclusive means about -30% to -65%; inactive means above about -30%; also: % is scaled to controls: 0 for no effect and ±100 for the full control effect
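AlphaScreen with 125 nM GST-E1A and 125 nM His-CtBP (5X stocks) in Tris pH 8.0, 300 mM NaCl, BSA, Tween 20, TCEP. Compounds preincubated 2 h at 37 deg C, then glutathione donor/nickel acceptor beads added for 1 h at 37 deg C in dark.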
Six1-Eya2 blk – qHTS Assay for Inhibitors of the Six1/Eya2 Interaction; AlphaScreen GST-Six1/His-Eya2 binding, biochemical; stronger effect = lower value; control for the full effect not named in the record; Homeobox protein SIX1 (Homo sapiens) + Protein phosphatase EYA2 (Homo sapiens), …; actives 0.56% (n = 360,000); activity change, % (no concentration beside the values); AID 651725, 2012; in the data active = activity change below about -65%; inconclusive = about -30% to -65%; inactive = above about -30%; also: % is scaled to controls: 0 for no effect and ±100 for the full control effect; compound concentration not given in the record
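Homogeneous AlphaScreen proximity assay pairing GST-Six1 with His-tagged Eya2 (added as 5X mix: 250 nM and 500 nM) in 50 mM Tris pH 8.0, 300 mM NaCl, 1 mM TCEP. Glutathione donor and nickel acceptor beads; 1 h, 37 °C, dark.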
Active calls of the source: *; ? = inconclusive; nt = not tested or not shown; [ ] = another dose, or the depositor's remark. Not a hit list. Share with any hit: about 1.3%.

SMILES	PINK1 modulator	D2 agonist	D2 potentiator	TRPML1 ag	CtBP-E1A inh	Six1-Eya2 blk
Cc1ccc(S(=O)(=O)Nc2cc(Cl)c(O)cc2C)cc1	?	7.0	26	0.4	0	0
Cc1ccc(-c2nnn(CC(=O)NCCC3=CCCCC3)n2)cc1	6.0%	-0.9	-11	3.8	2	2
COc1ccc(CCNC(=O)c2ccc(Cl)nc2)cc1	-0.2%	-2.5	-2	0.0	11	2
CCOC(=O)c1cc(OC(=O)c2cccs2)n(-c2ccccc2)n1	-2.7%[38.3 µM]	0.6	-7	0.4	-6	1
CC(C)CC(=O)Nc1cccc(-c2csc(-c3ccccc3)n2)c1	-0.3%	-1.2	0	2.2	13	4
CCOc1ccc(S(=O)(=O)N(C)c2ccc(OCC(=O)NCc3ccc(C(=O)OC)cc3)cc2)cc1	1.8%	-0.9	-7	0.4	2	5
CC(=O)Nc1ccc(C(=O)N/N=C/c2ccc(F)cc2)cc1	0.6%	-2.6	-6	-0.6	8	1
N#Cc1ccc(S(=O)(=O)N2CCCN(c3ccc(C(F)(F)F)cn3)CC2)cc1	0.6%	0.7	-4	0.6	7	-1
CC(C)Sc1nc2ccc(N3C(=O)C4CCCCC4C3=O)cc2s1 (stereo not given)	3.6%	-1.1	-10	1.3	14	5
Cc1ccc(NC(=O)CSc2nc(O)cc(=O)n2-c2ccc(C)cc2)cc1	-0.2%	-2.1	-2	0.0	nt	-16
Cc1cc(C2C(=O)c3ccccc3C2=O)c(C)c(C)c1C	2.3%	-9.8	-12	nt	3	-12
O=C(CCn1nnc2ccccc21)Nc1nnc(Cc2ccccc2)s1	0.4%	-1.3	23	-0.2	-15	-3
CC(C)=C1C(=O)NN(c2cccc(Cl)c2)C1=O	0.2%	-6.8	-5	-0.6	9	2
Cc1cc(NC(=S)N(Cc2ccc(Br)cc2)Cc2ccc(C(=O)O)cc2)ccc1Cl	4.6%	-0.4	-13	0.4	20	-8
CC(C)NS(=O)(=O)c1ccc(OCC(=O)NCc2cccnc2)cc1	nt	0.6	0	0.2	8	1
O=C(Nc1nc(N2C(=O)c3ccccc3C2=O)n(-c2ccccc2)n1)c1ccccc1	3.7%	-4.5	6	0.2	1	?
CCCCN1C[C@H](Cc2ccccc2)[C@@H](CC(=O)NC)C1=O	0.2%	-7.9	3	-0.1	6	7
COc1ccc(CNC(=O)Nc2cccc(Cl)c2)cc1	7.4%	-2.0	-22	1.6	12	11
COc1ccc(NC(=O)Nc2ccc3c(c2)C(=O)N([C@H](C)CO)C[C@@H](C)[C@@H](CN(C)C(=O)C2CCCCC2)OCCCC[C@H](C)O3)cc1	1.7%	-2.5	-8	0.3	23	-15
CN(Cc1ccccc1)C(=O)COc1ccc(-c2nnco2)cc1	3.1%	-2.6	-14	-0.2	13	6
CCOc1ccc(-n2nnnc2SCC(=O)Nc2cccc(O)c2)cc1	-0.7%	-2.1	-1	1.4	-14	0
COc1cc(Cl)ccc1OCc1cc(C(=O)N2C[C@]3(C)C[C@H]2CC(C)(C)C3)no1	?	-2.3	-35	1.7	0	21
O=C(CSc1nc(-c2ccc(F)cc2)cs1)N1CCc2ccccc21	3.3%[38.3 µM]	-2.2	6	1.7	4	-2
NS(=O)(=O)c1ccc(NC(=O)COC(=O)CSCc2ccc(F)cc2)cc1	2.5%	-1.2	1	-0.9	nt	-2
CC(C)CC1NC(=O)N(CC(=O)Nc2cccc(Br)c2)C1=O (stereo not given)	0.1%	3.2	0	0.0	-5	8

Whole records as entered above:
`COc1cc(Cl)ccc1OCc1cc(C(=O)N2C[C@]3(C)C[C@H]2CC(C)(C)C3)no1` is entered as PINK1 modulator = ?; D2 agonist = -2.3; D2 potentiator = -35; TRPML1 ag = 1.7; CtBP-E1A inh = 0; Six1-Eya2 blk = 21
`CC(C)=C1C(=O)NN(c2cccc(Cl)c2)C1=O` is entered as PINK1 modulator = 0.2%; D2 agonist = -6.8; D2 potentiator = -5; TRPML1 ag = -0.6; CtBP-E1A inh = 9; Six1-Eya2 blk = 2

New compounds follow.
SMILES	PINK1 modulator	D2 agonist	D2 potentiator	TRPML1 ag	CtBP-E1A inh	Six1-Eya2 blk
O=C(CSc1nnc(CNC(=O)c2cccs2)o1)NC1CCCCC1	-0.3%	-2.9	-13	2.3	-2	2
CC(C)C[C@@H](CN)NC(=O)c1nc[nH]c1C(=O)N[C@@H](CC(C)C)C(=O)CNC[C@H](C)NC(=O)c1nc[nH]c1C(=O)N[C@@H](CC(=O)O)C(=O)O	0.6%	-3.5	-3	-0.5	-7	-2
Cc1cc(-n2ccnc2)n2c(nc3ccccc32)c1C#N	5.2%[38.3 µM]	-1.5	3	1.1	-3	-13
CCOC(=O)c1cc(-c2ccccc2)sc1NC(=O)C(C)N1C(=O)c2ccccc2C1=O (stereo not given)	0.1%	-1.1	-8	0.2	3	-7
CCN(CC)S(=O)(=O)c1ccc(N2CCOCC2)c(NC(=O)c2cc(=O)[nH]c3ccccc23)c1	0.1%	-2.1	6	-0.4	-11	-1
Fc1ccc(-c2nc3ccc(Cl)cn3c2Cc2cccc(Cl)c2)cc1	1.6%	-2.4	-5	-0.5	9	0
CC(C)(C)C1(C)OC(=O)C(=Cc2ccc(OCC(=O)Nc3ccccc3)cc2)C(=O)O1 (stereo not given)	-0.5%	-1.5	-6	0.3	0	24
CCOC(=O)/C(C(N)=NCCO)=C(/O)c1ccccc1	7.0%[38.3 µM]	-2.9	-7	0.1	-1	3
COc1ccc(CN(C(=O)CSc2nnc(-c3ccccc3C)o2)c2ccc(F)cc2)cc1	0.1%	-4.4	-11	4.7	11	5
O=C(CCCn1cnc([N+](=O)[O-])n1)Nc1cccc(O)c1	1.3%	1.3	4	0.3	-1	-11
C=C(C)Cn1c(CCCNC(=O)C(C)(C)C)nc2ccccc21	-0.6%	0.2	-9	-1.1	6	-1
O=C(C[n+]1cccc(C(=O)Nc2ccccc2)c1)c1ccc([N+](=O)[O-])cc1	0.9%	-1.9	2	-0.7	-6	-8
COc1ccc(OCC(=O)Nc2c(C(=O)N3CCC(N4CCCCC4)CC3)oc3ccccc23)cc1	-2.3%	-5.2	-30	-0.5	-11	-7
Cc1cnc(C)c(Nc2nc(C(N)CCc3ccccc3)cs2)n1 (stereo not given)	2.7%	3.9	-7	-0.7	?	-28
CC(C)Cc1cc(CNC(=O)C2CCC(=O)N(CCc3cccc(F)c3)C2)on1 (stereo not given)	0.7%	-2.6	-14	-0.6	2	1
COCCN(C(=O)c1ccco1)c1nc(-c2ccccc2)cs1	1.2%	4.3	2	-0.2	3	1
CN(c1ccc(OCC(=O)N2CCCC2)cc1)S(=O)(=O)c1ccc(Cl)cc1	0.2%	-2.7	-2	1.8	nt	9
COc1ccc(CCn2c(C)cc(C(=O)CN3C(=O)C(=O)N(Cc4ccco4)C3=O)c2C)cc1	3.3%	-1.3	-1	2.6	-14	-11
CCc1nnc2n1N=C(c1ccc(OC)cc1)CS2	3.8%[38.3 µM]	-2.7	-7	0.3	-17	-17
CCOC(=O)c1cccc(NC(=O)CCc2ccccc2)c1	1.4%	-1.5	-13	2.3	8	6
COc1ccc(NC(=O)C(CC(C)C)NC(=O)c2ccccc2C)cn1 (stereo not given)	1.5%	-6.5	-13	-1.0	-2	-2
COc1ccc(C(=O)CN2CCN(CCN3C(=O)c4cccc5cccc(c45)C3=O)CC2)cc1	-1.0%	-5.0	-23	nt	-10	-12
COCCCNC(=O)c1cc2c(s1)CS(=O)(=O)C2	nt	-0.6	-7	1.1	9	-1
COc1ccc(CNC(=O)CCCc2ccccc2)cc1	-1.2%	-3.9	-15	-0.2	2	11
O=C1CCCN1CC(CN1CCOCC1)Sc1nc2ccccc2c(=O)n1-c1ccccc1 (stereo not given)	1.6%	-0.5	-5	-0.5	0	2
Next section.
SMILES	PINK1 modulator	D2 agonist	D2 potentiator	TRPML1 ag	CtBP-E1A inh	Six1-Eya2 blk
COc1ccc(Cc2c(-c3ccc(F)cc3)nc3c(C)cc(Br)cn23)c(C)c1	3.1%	-9.2	-10	0.7	1	0
CCOc1ccc(N(CC(=O)NC(C)(C)C)S(=O)(=O)c2c(C)noc2C)cc1	3.1%	2.1	-5	0.6	6	2
CCOc1ccc(S(=O)(=O)N2CCOCC2)cc1NC(=O)CSCc1c(C)noc1C	-1.4%	-3.3	-31	0.9	1	-6
CC(C)CNC(=O)COC(=O)c1cc(S(=O)(=O)N(C)C)ccc1N1CCCC1	11%	0.4	-3	0.2	17	2
Cc1cc(C(=O)COC(=O)c2cccnc2Cl)c(C)n1-c1c(C)n(C)n(-c2ccccc2)c1=O	-1.2%	-7.8	1	0.3	-2	-27
CCc1ccc(S(=O)(=O)NCc2csc(-c3ccccc3)n2)s1	-1.9%	-4.4	-19	0.4	9	-2
COc1ccc(NC(=O)CC(=O)Nc2ccc(OC)cc2OC)c(OC)c1	26%[38.3 µM]	1.2	12	0.5	1	-1
COCCNC(=O)c1cnn2c(C(F)(F)F)cc(-c3ccc(C)cc3)nc12	0.4%	-3.9	-9	0.1	nt	-3
Cc1ccc(C(=O)NCC(=O)OC(C)C(=O)Nc2ccc(N3CCOCC3)cc2)s1 (stereo not given)	0.5%	5.8	-2	0.5	nt	26
COc1ccc(NC(=S)NCCNC(C)=O)cc1	2.0%	-5.5	-7	-0.1	nt	2
COc1ccc(NC(=O)CC2CCCC2)cc1S(=O)(=O)N1CCCCC1	0.8%	-7.2	-29	0.4	-4	0
OC[C@@H]1CN(Cc2ccco2)C[C@H](n2cnc3c(N4CCOCC4)ncnc32)O1	0.3%	-2.4	-11	0.5	6	2
Cc1cc(Nc2ccc(C(C)C)cc2)n2ncnc2n1	-2.7%	-3.7	0	1.9	6	2
CCc1cc2c3c(c1)C1(C(=O)N3C(C)(C)CC2C)C(C#N)=C(N)N2C(=C1C#N)Nc1ccccc12 (stereo not given)	0.1%	7.1	17	0.6	-12	-5
COc1ccc(Cn2nnnc2C(c2ccccc2OC)N2CCC(C(N)=O)CC2)cc1 (stereo not given)	-0.1%	-2.2	-6	1.5	2	10
Cc1nc(NNC(=O)c2ccccc2)cc(-c2ccccc2)n1	2.4%	-3.7	-10	-0.5	10	0
Cc1noc(C)c1COC(=O)c1cccc(S(=O)(=O)N2CCCCCC2)c1	2.9%	2.1	3	3.2	2	9
CSc1nnc(-c2sc3cc(C(F)(F)F)cnc3c2-c2cccnc2)n1C	5.1%	-1.4	-15	-0.2	-2	6
CC(C)CC(CO)N1CCN(C(=O)c2cccc(Cl)c2)CCC1=O (stereo not given)	0.2%	-1.3	-58	-0.2	-19	-7
